HIV TAR-Tat: HIV-1 TAR-Tat binding disruption; 100,000 tested, 0.6% active; HIV-1 TAR RNA, Tat peptide displacement FRET; stronger effect = higher value; z-score (concentration not given with the values);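 note: score is relative to mean and SD of negative controls; some compounds called inactive have numbers as strong as hits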
CDC25B CDK2 inh: human CDC25B-CDK2/CyclinA binding inhibition | AID 1259370 | P30305+P24941 | HTRF CDC25B-CDK2/CyclinA binding, anti-His/anti-Flag; stronger effect = higher value | z-score (test concentration not listed) | 94,000 tested, 0.72% active;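 note: score is relative to mean and SD of negative controls; strong numbers were not always called active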
The depositor's hits bear a star; x = not tested or not shown.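 Rule for the calls: active = z-score from 3 up in half or more of its runs; inactive = the rest.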 Not a hit list (roughly 0.94% active in at least one column).

Molecule,HIV TAR-Tat,CDC25B CDK2 inh
Cc1cc2nc(SCCO)nc(C)c2cc1C,-1.5,-1.6
CCC1(CC)Cc2ccccc2C(NC(=O)NC2CCCC2)=C1C#N,0.69,-1.1
COCCCNC(=O)CN1Cc2ccccc2C1=O,0.61,x
COc1ccc(OC)c(Nc2nnc(-c3cc4cccc(OC)c4oc3=O)s2)c1,x,-1.1
CC(C)C(=O)N1c2ccccc2NC2=C(C(=O)CC(C)(C)C2)C1c1cccc(Cl)c1 (centres undefined),-0.89,0.34
NC(=NC(=O)c1ccc(OCC(F)(F)F)nc1)c1ccc(C(F)(F)F)cc1,x,-2.7
Cc1ccc2nc(NC3=NCN(C(C)C)CN3)nc(C)c2c1,-1,8.1*
COC(=O)c1ccc(-c2cc(C(=O)O)c3cc4c(cc3n2)OCCO4)cc1,0.64,-0.89
CCCCN(C)C(=O)CSc1ncc(C(=O)OCC)c(N)n1,0.76,x
COc1ccc(NS(=O)(=O)c2ccc(N3CCCCS3(=O)=O)cc2)cc1OC,1.6,x
COc1ccc2c(c1OC)C(=O)OC2Nc1cc(C(=O)O)cc(C(=O)O)c1 (centres undefined),x,3.8
Cc1nc([N+](=O)[O-])cn1CC(=O)c1ccc2c(c1)OCCCO2,x,-0.44
Cc1ccc(Nc2nc(NC3CCCCC3)nc3c2cnn3C)cc1,0.72,x
Cn1c(=O)c2cn(-c3cccc4ccccc34)cc2n(C)c1=O,-0.73,-2
COc1ccc(S(=O)(=O)c2cnc3ccc(OC)cc3c2N2CCCCC2)cc1,0.79,-1.4
O=C(CN1C=NS(=O)(=O)c2ccccc21)NC1CCCC1,0.39,x
CCN1C(=O)C(O)(CC(=O)c2ccc(C(C)C)cc2)c2cc(Br)ccc21 (centres undefined),2.5,0.7
CCC1c2ccc(C)n2CCN1C(=O)Nc1ccc2c(c1)OCCO2 (centres undefined),-9.3,-0.71
O=c1[nH]nc(-c2ccc(F)cc2)c2c1Nc1nnnn1C2c1ccc(Cl)cc1 (centres undefined),1.1,-0.75
CC(=O)Nc1cc2cc(NC(=O)c3ccc([N+](=O)[O-])cc3)ccc2oc1=O,x,-0.88
Cc1c(C(=O)N2CCCCC2)c(S(=O)(=O)Nc2ccc3c(c2)OCO3)c(C)n1C,0.2,x
CC1=C(C(=O)OCC2CCCO2)C(c2cccc(O)c2)C2=C(CC(c3cccs3)CC2=O)N1 (centres undefined),0.3,-1.3
C=CCNC(=O)Nc1c[nH]c2ccc(F)cc2c1=O,-0.47,-1.8
COC(=O)C1CCC(NC(C)=O)C(C(=O)OC)C1 (centres undefined),x,-1.1
CC1CCCCC1NC(=O)C1(C)Cn2c(cc3occc32)C(=O)N1CCN(C)C1CCCCC1 (centres undefined),2.3,x
Cc1ccccc1-c1nnc(C2CCN(S(=O)(=O)c3cccc4nsnc34)CC2)o1,0.82,1.2
COc1cc(C2Sc3ccccc3NC3=C2C(=O)c2ccccc23)ccc1OC(C)=O (centres undefined),-4.7,0.47
CCOC(=O)Cc1csc(NC(=O)Nc2sc3nc4n(c(=O)c3c2C)CCC(C)CC4)n1 (centres undefined),1.2,-5.7
CCSc1nnc(NC(=O)c2cnc(SC)nc2C)s1,1.7,x
CC1(C(=O)NC2CCCCC2)Cn2c(cc3sccc32)C(=O)N1Cc1ccccn1 (centres undefined),1.3,-1.4
C=C(C)Cn1c(SCCO)nc2c(c1=O)C1(CCCCC1)Cc1ccccc1-2,0.79,0.47
COC(=O)C(C)Sc1ccc2nnc(CCNS(=O)(=O)c3ccccc3)n2n1 (centres undefined),2.6,x
O=C(NCCn1cnc2cc(C(=O)N3CCCC3)ccc21)NC1CCCCC1,0.44,x
CCCCc1nc(SCC(=O)Nc2ccc3c(c2)OCO3)c2c(=O)n(C)c(=O)n(C)c2n1,-0.17,x
CCCCC(CC)CNC(=O)CCC1Nc2c3ccccc3nc(=S)n2C1=O (centres undefined),x,-1.7
O=C1c2ccccc2NC(c2cc(Cl)cc(Cl)c2O)N1Cc1cccnc1 (centres undefined),x,-0.6
O=C(C1CCCN(S(=O)(=O)c2ccc(Cl)cc2)C1)N1CCCCC1 (centres undefined),x,-1.9
Fc1cccc(NCc2cccn2-c2nnc(N3CCCC3)s2)c1,1.7,x
O=C1CCCc2c1[nH]c1ccc(CN3CCCCC3)cc21,0.43,-0.64
O=C(CCOc1ccc(F)cc1)Nc1nccs1,x,-1.6
CC(=O)Nc1cccc(C(C)(C)C)c1,x,-1.6
COc1ccc(OC)c(N2CC(O)=C(c3nc4ccccc4[nH]3)C2=N)c1,-2,-1.8
Cc1nc(SCC(=O)c2cc3ccccc3oc2=O)c(C#N)c(C)c1C(=O)Nc1ccccc1,x,-1.4
O=C1c2ccccc2C(NCc2cccnc2)N1Cc1cccnc1 (centres undefined),x,-1.6
Cc1cc2cc(CCNC(=O)C3c4ccccc4Oc4ccccc43)c(=O)[nH]c2cc1C,x,0.13
CCn1c(=O)c(N2CCCC(C(=O)N3CCN(C(=O)c4ccco4)CC3)C2)nc2ccccc21 (centres undefined),1.1,x
CCNC(=O)N(Cc1nc(-c2ccc(Cl)cc2)no1)C(C)C,-0.27,-1
Cc1csc(NC(=O)C2CCCN(S(=O)(=O)c3c[nH]c(C(=O)N4CCCC4)c3)C2)n1 (centres undefined),0.95,x
Cc1cc(OCc2nc3ccc(F)cc3[nH]2)ccc1Cl,-0.05,0.79
Cc1cn2c(=O)c(S(=O)(=O)Nc3ccc(Br)c(C)c3)c(C)nc2s1,-0.11,x
CN(CC(=O)O)S(=O)(=O)c1ccc2[nH]c(=O)c(=O)[nH]c2c1,1.1,x
CC1(C)C(=O)C2(CCCCC2)C(=O)OC1c1ccc(F)cc1 (centres undefined),x,-2.2
COc1ccc(NC(CC(=O)C2CC2)c2ccccc2)cc1 (centres undefined),x,-1.5
CC1CCCC(N2CNC(=S)NC2)C1C (centres undefined),x,0.26
CCN1C(=O)C(O)(CC(=O)c2ccc3c(c2)CCCC3)c2ccccc21 (centres undefined),-1.1,-0.49
Cc1ccc(-c2cn3c(n2)sc2cc(C(=O)N4CCN(C(=O)c5ccco5)CC4)ccc23)c(C)c1,2.4,x
CC1CCCN(CCCNS(=O)(=O)c2csc(C(N)=O)c2)C1 (centres undefined),1.1,x
COc1ccc2c(c1)NC(c1ccncc1)=NC(c1ccc(F)cc1)=N2,0.14,-1.2
CC[N+]1(Cc2ccccc2)C2=C(CN(C)CC2)c2ccccc21 (centres undefined),x,-1.8
CC(C)NC(=O)Cn1ncn2nc(-c3ccco3)cc2c1=O,0.19,-1.9

Additional compounds:
Molecule,HIV TAR-Tat,CDC25B CDK2 inh
NC(=O)CSc1nc2ncccc2c(=O)n1-c1ccccc1,1.3,-1.8
COc1cc(C)ccc1OCCSc1nnc(-c2ccccc2C)o1,-0.07,-0.77
N#Cc1nccnc1N1CCN(C(=O)c2ccccc2)CC1,x,-2.3
CCCSc1nc2ccccc2[nH]1,0.78,0.77
O=C(O)CCSc1nc2ccc(Br)cc2[nH]1,1.5,-1.1
CCCN(Cc1cccs1)C(=O)Nc1cc(Cl)c(OC)cc1OC,0.29,-0.56
O=C(Nc1ccc(F)cc1F)N1CC=CCC1,0.48,-1.2
CC(=O)c1ccccc1OC(=O)c1c(Cl)cccc1Cl,x,-0.01
OC(CN1CCN(c2ccccc2F)CC1)c1ccc2[nH]ccc2c1 (centres undefined),-0.5,0.26
CCc1ccc(S(=O)(=O)Nc2ccc3[nH]c(=O)sc3c2)cc1,0.24,x
Cc1ccc(NS(=O)(=O)c2ccc3c(c2)C(C)(C)C(=O)N3)cc1C,0.52,x
COc1ccc(C2CC(=O)C3=C(C2)NC(C)=C(C(=O)OC(C)C)C3c2ccc(OC)cc2OC)cc1 (centres undefined),-1,-1.8
CC(C)NC(=O)N1CCC(n2nnc3ccccc3c2=O)CC1,0.68,x
Cc1cc(CNC(=O)NCCC(C)C)c(C)n1-c1cccc(Cl)c1,-0.74,x
CS(=O)(=O)Nc1nc2ccc(NC(=O)NCc3ccco3)cc2s1,0.75,x

Reformatted as labelled records: 4 of the compounds above.
CC(C)NC(=O)N1CCC(n2nnc3ccccc3c2=O)CC1
- HIV TAR-Tat: 0.68
- CDC25B CDK2 inh: x

CCCN(Cc1cccs1)C(=O)Nc1cc(Cl)c(OC)cc1OC
- HIV TAR-Tat: 0.29
- CDC25B CDK2 inh: -0.56

CCc1ccc(S(=O)(=O)Nc2ccc3[nH]c(=O)sc3c2)cc1
- HIV TAR-Tat: 0.24
- CDC25B CDK2 inh: x

N#Cc1nccnc1N1CCN(C(=O)c2ccccc2)CC1
- HIV TAR-Tat: x
- CDC25B CDK2 inh: -2.3

Carrying on.
Molecule,HIV TAR-Tat,CDC25B CDK2 inh
O=C(NCc1ccc(F)cc1)c1cc2c(s1)CS(=O)(=O)C2,-0.57,-0.82
CCOC(=O)C(C)Oc1cc2oc(=O)c3c(c2cc1CC)CCCC3 (centres undefined),x,-1.8
Cc1ccc(S(=O)(=O)n2ccn(C(=O)CC3CCCC3)c2=O)cc1,0.06,x
CCc1ccc(S(=O)(=O)c2cn(C)c3cc(N4CCCC(C)C4)c(F)cc3c2=O)cc1 (centres undefined),-0.68,x
CCCCNc1n[nH]c2c1CCc1ccccc1-2,0.33,-2.2
CCOC(=O)c1c(NC(=O)c2onc(C)c2Cl)sc2c1CCCC2,-0.05,-1.6
CC1=NN(C(=O)c2csc3c2CCC(C)C3)C(O)(C(F)(F)F)C1 (centres undefined),x,-0.5
O=C(O)c1ccc(Nc2nc(-c3cccnc3)cs2)cc1,2.6,-1.2
O=C(c1oc(=O)c2ccccc2c1-c1ccccc1)N1CCc2ccccc21,x,-1.4
CCCc1c(C)nc2ncnn2c1N1CCN(c2cccc(Cl)c2)CC1,0.94,0.98
COc1ccc(C2CC(=O)NC3=C2C(=O)CC(c2ccc(F)cc2)C3)cc1OC (centres undefined),-1.8,-1.9
CC(C)c1ccc(-c2c(NCc3ccc(Cl)cc3)c(=O)c2=O)cc1,1.3,x
COC(=O)CO/N=C/c1ccc(Cl)cc1Cl,x,0.13
CC1=CC(C)(C)N2C(=O)C(=O)c3cc(OC(=O)c4ccc(F)cc4)cc1c32,1.4,-0.13
Cc1ccc(S(=O)(=O)Nc2ccc(O)c(Br)c2)cc1,0.33,-1.4

Individual results from the results shown:
O=C(Nc1ccc(F)cc1F)N1CC=CCC1 | HIV TAR-Tat: 0.48
CCC1c2ccc(C)n2CCN1C(=O)Nc1ccc2c(c1)OCCO2 (centres undefined) | HIV TAR-Tat: -9.3

Later entries
Molecule,HIV TAR-Tat,CDC25B CDK2 inh
O=S(=O)(NCCS(=O)(=O)N1CCN(c2ccccc2)CC1)c1ccc2ccccc2c1,1.5,x
CC1=CC(c2ccc(Cl)cc2)n2nc(N3C(=O)c4ccccc4C3=O)nc2N1 (centres undefined),x,0.75
c1cc2c(cc1CN1CCc3nc(N4CCOCC4)ncc3C1)OCCO2,1.3,x
Cc1cc(NC(=O)C2CCN(S(=O)(=O)c3c(C)[nH]c(=O)[nH]c3=O)CC2)c2ccccc2n1,x,-3.4
C=CCOC(=O)c1[nH]c2c(c1C)C(=O)CC(c1ccco1)C2 (centres undefined),0.72,-0.9
O=c1c(-c2cccc(Cl)c2)c(C(F)(F)F)oc2cc(O)ccc12,0.2,-0.58
CCOC(=O)c1noc2nc(C)nc(N3CCN(c4cccc(Cl)c4)CC3)c12,-0.13,x
CCN1C(=O)C2(/C(=C(/O)c3ccc(C)c(F)c3)C(=O)C(=O)N2CCN(C)C)c2ccccc21 (centres undefined),0.91,-0.3
CC(C)Cc1nn2c(=O)cc(COC(=O)c3ccc(Cl)cc3)nc2s1,0.68,x
Cc1noc2ncnc(N3CCC(C(=O)NC(C)C)CC3)c12,-0.25,x
COC(=O)c1cc(NC(=O)c2nn(C)c3c2CSc2ccccc2-3)cc(C(=O)OC)c1,2.4,-2.5
CCOC(=O)C(C)n1cnc2c1c(=O)[nH]c(=O)n2C (centres undefined),2.5,-1.7
COc1ccc(OC(=O)c2sc3ccccc3c2N)cc1,2,x
Cc1csc(NC(=O)C2CCCN(S(=O)(=O)c3cn(C)cn3)C2)n1 (centres undefined),1.5,x
COC(=O)C(C)Sc1nnc2cc(C)c3cc(C)cc(C)c3n12 (centres undefined),-0.68,-1.2
Cn1c(=O)c2c(nc(Sc3ccc(Cl)cc3)n2C)n(C)c1=O,1.6,-1.5
O=C1c2cccc3cccc(c23)C(=O)N1CC1CCN(CC(O)COc2ccc3c(c2)OCO3)CC1 (centres undefined),x,-1.5
Cc1cccc(Cn2c(C)c(CNCc3ccc4c(c3)OCO4)c(C(=O)O)c2C)c1,0.32,-1.4
O=C1c2cccnc2C(=O)N1Cc1ccc(F)cc1S(=O)(=O)Nc1ccc(F)cc1,0.84,x
CCCSCCCn1cnc2c([nH]c3ccc(Cl)cc32)c1=O,1.6,-0.62
N#Cc1nccc2ccccc12,x,-2.2

Gathered by group, those above with a cyano group.
Molecule,HIV TAR-Tat,CDC25B CDK2 inh
CCC1(CC)Cc2ccccc2C(NC(=O)NC2CCCC2)=C1C#N,0.69,-1.1
Cc1nc(SCC(=O)c2cc3ccccc3oc2=O)c(C#N)c(C)c1C(=O)Nc1ccccc1,x,-1.4
N#Cc1nccnc1N1CCN(C(=O)c2ccccc2)CC1,x,-2.3
N#Cc1nccc2ccccc12,x,-2.2
